T. gondii: T. gondii ME49Luc in HeLa cells, luciferase assay, 72 h, no IFN-y (AID 1259421) | T. gondii ME49Luc in HeLa, luciferase, 72 h, no IFN-y; active compounds read low; reference of the scale and settings of repeat entries not given here; many of its hits are not listed in these tables | 6,400 compounds, 9.6% hits | activity change, negative = inhibition, %;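 active = activity change below -70%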;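 also: about 20 µM from a 10 mM stock diluted 500-fold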
The depositor's hits bear a star; & = joins results of further samples; ! = repeats disagree.

How did C=C1CC[C@H](O)C/C1=C/C=C1\CCC[C@]2(C)[C@@H]([C@H](C)CCCC(C)C)CC[C@@H]12 do in these assays?
T. gondii: -78.3*

What do the screens show for `Cc1ncc(CSSCc2cnc(C)c(O)c2CO)c(CO)c1O`?
T. gondii: 2.7&10.0

Results for CCC(=O)O[C@@]1(C(=O)CCl)[C@@H](C)C[C@H]2[C@@H]3C[C@H](F)C4=CC(=O)C=C[C@]4(C)[C@]3(F)[C@H](O)C[C@@]21C ?
T. gondii: 6.1

Results for CC(C)OC(=O)c1cc2c(OCC(O)CNC(C)(C)C)cccc2[nH]1 (stereo not drawn) ?
T. gondii: 2.4&5.3

Results for OC[C@H]1O[C@H](O[C@H]2O[C@H](CO)[C@@H](O)[C@H](O)[C@H]2O)[C@H](O)[C@@H](O)[C@@H]1O ?
T. gondii: 7.5

Results for CCC(=O)NC1CCc2cccc(OC)c2C1 (stereo not drawn) ?
T. gondii: 6.9&4.7

How did Cc1cccc(C(=O)O)c1O do in these assays?
T. gondii: 9.1&0.7

How did O=C(O)c1ccccc1NCCc1ccccc1 do in these assays?
T. gondii: 27.1

Results for Cc1cccc(CC(=O)N2CCc3c2ccc(-c2cn(C)c4ncnc(N)c24)c3F)n1 ?
T. gondii: -7.2

What do the screens show for `Cc1c(C)c2c(c(C)c1OC(=O)CCC(=O)O)CC[C@@](C)(CCC[C@H](C)CCC[C@H](C)CCCC(C)C)O2`?
T. gondii: 19.4

4 records drawn at random from those above, as already listed:
Results for Cc1cccc(CC(=O)N2CCc3c2ccc(-c2cn(C)c4ncnc(N)c24)c3F)n1 ?
T. gondii: -7.2

What do the screens show for `Cc1ncc(CSSCc2cnc(C)c(O)c2CO)c(CO)c1O`?
T. gondii: 2.7&10.0

How did O=C(O)c1ccccc1NCCc1ccccc1 do in these assays?
T. gondii: 27.1

What do the screens show for `Cc1c(C)c2c(c(C)c1OC(=O)CCC(=O)O)CC[C@@](C)(CCC[C@H](C)CCC[C@H](C)CCCC(C)C)O2`?
T. gondii: 19.4

The list goes on.
What do the screens show for `CCCCOC(=O)c1cc2c(cn1)[nH]c1ccccc12`?
T. gondii: 252.9&42.7

What do the screens show for `C[C@@H]1O[C@@H](O[C@@H]2[C@H](Oc3cc(O)c(C(=O)CCc4ccc(O)cc4)c(O)c3)O[C@H](CO)[C@@H](O)[C@@H]2O)[C@H](O)[C@H](O)[C@H]1O`?
T. gondii: 5.3

What do the screens show for `C=CCc1ccc(O)c(-c2ccc(O)c(CC=C)c2)c1`?
T. gondii: -25.4

How did O=C(/C=C/c1ccc(CN(CCO)CCc2c[nH]c3ccccc23)cc1)NO do in these assays?
T. gondii: -83.9*

Results for COc1cc2c(cc1OC)[C@@H]1Cc3ccc(OC)c(OC)c3CN1CC2 ?
T. gondii: 11.5

What do the screens show for `CCOC(=O)C1=C[C@]2(CC)CCCN3CCc4c(n1c1ccccc41)[C@@H]32`?
T. gondii: 15.6

How did O=C(NNc1nc2cc(F)ccc2n2cccc12)c1cnccn1 do in these assays?
T. gondii: -77.3*

How did CCCCCCCNS(=O)(=O)c1cccc2c(Cl)cccc12 do in these assays?
T. gondii: 18.3&10.4

Results for CCOc1cc([C@@H](CS(C)(=O)=O)N2C(=O)c3cccc(NC(C)=O)c3C2=O)ccc1OC ?
T. gondii: 16.0

How did Cc1cc(Oc2ccc3nc(COc4ccc(CC5SC(=O)NC5=O)cc4)n(C)c3c2)cc(C)c1N (stereo not drawn) do in these assays?
T. gondii: 12.3

What do the screens show for `FC(F)(F)C(F)(F)C(F)(F)N(C(F)(F)C(F)(F)C(F)(F)F)C(F)(F)C(F)(F)C(F)(F)F`?
T. gondii: 27.6

Results for COc1cc(OC)c(-c2c(OC)cc(OC)cc2OC)c(OC)c1 ?
T. gondii: -0.9

What do the screens show for `C=C1C(=O)[C@]23[C@H](O)[C@H]1CC[C@@H]2[C@@]12CO[C@]3(O)C[C@@H]1C(C)(C)CC[C@@H]2O`?
T. gondii: -77.5*!

What do the screens show for `CC1(C)C(=O)[C@@H]2C[C@@]3(O)C4=CC(=O)O[C@@H](c5ccoc5)[C@]4(C)CCC3[C@@](C)(C2=O)[C@H]1CC(=O)O` (stereo partly drawn)?
T. gondii: 0.6

How did CCCCCC/C=C/C=C\CCCCCCCC(=O)O do in these assays?
T. gondii: 9.0

How did CC(=O)N[C@@H](C=O)[C@@H](O)[C@H](O)[C@H](O)CO do in these assays?
T. gondii: 11.9

How did CCc1nn(CCCN2CCN(c3cccc(Cl)c3)CC2)c(=O)n1CCOc1ccccc1 do in these assays?
T. gondii: 9.2&20.4

Results for CCCCCCCCC(=O)NCc1cc(OC)c(O)cc1I ?
T. gondii: 17.5&15.3

Results for Nc1nc2c(ccc3ccccc32)s1 ?
T. gondii: 51.8

What do the screens show for `CC(C(=O)O)c1ccc2c(c1)Cc1cccnc1O2` (stereo not drawn)?
T. gondii: -8.1

Results for C#C[C@]1(OC(C)=O)CCC2C3CCC4=CC(=O)CC[C@@H]4C3CC[C@@]21C (stereo partly drawn) ?
T. gondii: -90.3*

How did CN1c2cc(O)c(N=NC(N)=O)cc2CC1S(=O)(=O)O (stereo not drawn) do in these assays?
T. gondii: -1.4

Results for CC1CN(CCCn2c3ccccc3c3ccccc32)CC(C)N1 (stereo not drawn) ?
T. gondii: -30.6

What do the screens show for `C[C@@]1(F)[C@H](O)[C@@H](CO)O[C@H]1n1ccc(N)nc1=O`?
T. gondii: 6.2

How did c1cc2c3c(c1)c1c(n3CCNC2)CCCC1 do in these assays?
T. gondii: 7.9

How did O=c1[nH]c(=O)c2[nH]c(=O)[nH]c2[nH]1 do in these assays?
T. gondii: 3.9

What do the screens show for `Cc1onc(-c2ccccc2)c1C(=O)N[C@@H]1C(=O)N2[C@@H]1SC(C)(C)[C@@H]2C(=O)O`?
T. gondii: 13.6&8.6

How did N#Cc1cc(I)c(O)c([N+](=O)[O-])c1 do in these assays?
T. gondii: 10.2

How did CCCCC(=O)NCCc1c(Cc2ccccc2)[nH]c2ccccc12 do in these assays?
T. gondii: 10.6

Results for O=C(O)c1cc([N+](=O)[O-])ccc1NCCCc1ccccc1 ?
T. gondii: 11.4&14.5

What do the screens show for `OCc1ccc(O[C@@H]2O[C@@H](CO)[C@@H](O)[C@H](O)[C@H]2O)cc1`?
T. gondii: -0.1

How did Cc1ccc(C(=O)Nc2ccc(Oc3cc4cnn(C)c4cc3-c3cn[nH]c3)c(F)c2)c(=O)n1-c1ccc(F)cc1 do in these assays?
T. gondii: -82.1*

Results for C[C@@H](C1=C(CCN(C)C)Cc2ccccc21)c1ccccn1 ?
T. gondii: 5.2&1.8

How did N#CC(=C(/N)Sc1ccccc1N)/C(C#N)=C(/N)Sc1ccccc1N do in these assays?
T. gondii: 20.0

Results for O=c1cc(-c2cc(O)c(O)c(O)c2)oc2cc(O)cc(O)c12 ?
T. gondii: -14.0

What do the screens show for `Cc1nc(Cn2cnc3c2c(=O)n(C)c(=O)n3C)no1`?
T. gondii: 8.1

Results for CO[C@@H]1[C@@H](OC(N)=O)[C@@H](O)[C@H](Oc2ccc3c(O)c(NC(=O)c4ccc(O)c(CC=C(C)C)c4)c(=O)oc3c2C)OC1(C)C ?
T. gondii: -5.6&-14.2

How did CN(C)c1ccc(C(=C2C=CC(=[N+](C)C)C=C2)c2ccc(N(C)C)cc2)cc1 do in these assays?
T. gondii: -81.0*

Results for CO/N=C(/C(=O)N[C@@H]1C(=O)N2C(C(=O)OCOC(=O)C(C)(C)C)=C(/C=C/c3scnc3C)CS[C@H]12)c1csc(N)n1 ?
T. gondii: 2.9

Results for CO[C@@]1(NC(=O)C2SC(=C(C(N)=O)C(=O)O)S2)C(=O)N2C(C(=O)O)=C(CSc3nnnn3C)CSC21 (stereo partly drawn) ?
T. gondii: 5.7

How did COc1c2ccoc2cc2oc(C)cc(=O)c12 do in these assays?
T. gondii: 0.7

How did C[C@@H]1C[C@H]2[C@@H]3C[C@H](F)C4=CC(=O)C=C[C@]4(C)[C@@]3(Cl)[C@@H](O)C[C@]2(C)[C@H]1C(=O)COC(=O)C(C)(C)C do in these assays?
T. gondii: 6.4

What do the screens show for `COc1ccc(C(=O)Nc2sc3c(c2C(N)=O)CCCC3)cc1OC`?
T. gondii: 24.7&50.7

Results for CC[N+](CC)(CC)CC(=O)Nc1c(C)cccc1C ?
T. gondii: 7.1

How did CN1CCC(=C2c3ccccc3C=Cc3ccccc32)CC1 do in these assays?
T. gondii: -2.5&17.6&16.6

Results for CCN(CC)CCCCC1CCN(CC(=O)N2c3ccccc3C(=O)Nc3cccnc32)CC1 ?
T. gondii: 11.5&11.7

Results for NCCC(O)(P(=O)(O)O)P(=O)(O)O ?
T. gondii: -2.9

Results for C#C[C@]1(O)CCC2C3CCc4cc(OC)ccc4C3CC[C@@]21C (stereo partly drawn) ?
T. gondii: 7.6

Results for C=CCc1ccc(O)c(OC)c1 ?
T. gondii: 5.9&14.2

What do the screens show for `COc1ccc(-c2coc3cc(O)ccc3c2=O)c(O)c1O`?
T. gondii: 2.9

How did CS(=O)(=O)Nc1c(O)ccc2c1CCCC2C1=NCCN1 (stereo not drawn) do in these assays?
T. gondii: 0.1&15.3

How did CCCCCCCCCCCCCCCCOP(=O)(O)OCC[N+](C)(C)C do in these assays?
T. gondii: 1.0&16.4

What do the screens show for `C[C@H](Cn1cnc2c(N)ncnc21)OCP(=O)(O)O`?
T. gondii: 8.9

What do the screens show for `Cc1ccc(-c2csc(NC(=O)c3ccccc3)n2)c(C)c1`?
T. gondii: 73.8

What do the screens show for `COc1ccc(C2CC(c3c(O)cc(C)oc3=O)=NCCS2)c(OC)c1` (stereo not drawn)?
T. gondii: 10.3

What do the screens show for `CC(C)c1ccc2c(c1)C(N1CCN(CCO)CC1)Cc1ccc(F)cc1S2` (stereo not drawn)?
T. gondii: -37.4

Results for Cc1c(NC(=O)N2CCOCC2)ccc2c1c1ccccc1n2C(C)C ?
T. gondii: 12.3

What do the screens show for `CN1C(=O)C(F)=C[C@]2(C)[C@H]3CC[C@]4(C)[C@@H](C(=O)NCc5nc6ncccc6[nH]5)CC[C@H]4[C@@H]3CC[C@@H]12`?
T. gondii: -1.3

How did CC(C)=CCC/C(C)=C/CC/C(C)=C/CSc1ccccc1C(=O)O do in these assays?
T. gondii: 3.4

What do the screens show for `CCC(C)SSc1ncc[nH]1` (stereo not drawn)?
T. gondii: 20.6

Among those listed so far, 2 contain a cyano group:
How did N#Cc1cc(I)c(O)c([N+](=O)[O-])c1 do in these assays?
T. gondii: 10.2

How did N#CC(=C(/N)Sc1ccccc1N)/C(C#N)=C(/N)Sc1ccccc1N do in these assays?
T. gondii: 20.0

The list goes on:
Results for CC(C)CCCCC(=O)NC(CCN)C(=O)NC(C(=O)NC(CCN)C(=O)NC1CCNC(=O)C(C(C)O)NC(=O)C(CCN)NC(=O)C(CCN)NC(=O)[C@H](CC(C)C)NC(=O)[C@@H](CC(C)C)NC(=O)C(CCN)NC1=O)C(C)O (stereo partly drawn) ?
T. gondii: 5.6

What do the screens show for `Cc1nc2c([nH]1)CCN(C(=O)c1ccc(NC(=O)c3ccccc3-c3ccccc3)cc1)c1ccccc1-2`?
T. gondii: 24.9

How did CN1CCCN(C(c2ccccc2)c2ccc(Cl)cc2)CC1 (stereo not drawn) do in these assays?
T. gondii: 15.1

Results for CCCCCC(C)N (stereo not drawn) ?
T. gondii: 1.9

What do the screens show for `CC(=O)NC1=NN(C(C)=O)C(C)(c2ccccc2)S1` (stereo not drawn)?
T. gondii: -32.2

Results for CC1CNc2c(cccc2S(=O)(=O)N[C@@H](CCCN=C(N)N)C(=O)N2CC[C@@H](C)C[C@@H]2C(=O)O)C1 (stereo partly drawn) ?
T. gondii: 9.0

How did Cc1cc(=O)oc2c(O)c(O)ccc12 do in these assays?
T. gondii: 17.0

Results for COC(=O)/C=C/C(=O)OC ?
T. gondii: -2.0

What do the screens show for `Cc1ccc(-c2c(-c3nn(C)c4ncnc(N5CC[C@H](N6CCCCC6)C5)c34)cnn2C)cc1`?
T. gondii: 14.9

What do the screens show for `OCCN1CCN(CC/C=C2/c3ccccc3Sc3ccc(Cl)cc32)CC1`?
T. gondii: -82.3*

How did CC(=O)O[C@H]1C[C@@H](O)C(C)(C)C2C[C@@H](OC(C)=O)[C@]3(C)C(CC[C@@]4(C)[C@H](c5ccoc5)OC(=O)C5OC543)[C@]21C (stereo partly drawn) do in these assays?
T. gondii: -2.4

Results for COc1cccc(OC)c1C(=O)N[C@@H]1C(=O)N2[C@@H]1SC(C)(C)[C@@H]2C(=O)O ?
T. gondii: 7.0

What do the screens show for `CCOC(=O)c1ncc2[nH]c3cccc(OC(C)C)c3c2c1C`?
T. gondii: 3.6&10.3

How did CCN(CC)C(=S)S do in these assays?
T. gondii: 8.7

How did CN(CCOP(=O)(O)O)C(=N)N do in these assays?
T. gondii: 1.5&22.7

How did Cc1cc2c(C(C)C)c(O)c(O)c(C=O)c2c(O)c1-c1c(C)cc2c(C(C)C)c(O)c(O)c(C=O)c2c1O do in these assays?
T. gondii: -70.8*!

What do the screens show for `CC(C)c1cnn2c(NCc3ccccc3)cc(NCCCCCCN)nc12`?
T. gondii: 20.3

Results for CCCCCN(CCCCC)C(=O)C(CCC(=O)O)NC(=O)c1ccc(Cl)c(Cl)c1 (stereo not drawn) ?
T. gondii: 0.3&14.0

How did CC(C)CN(C[C@@H](O)[C@H](Cc1ccccc1)NC(=O)O[C@H]1CCOC1)S(=O)(=O)c1ccc(N)cc1 do in these assays?
T. gondii: 0.8

Results for C=C1[C@H](CO)[C@@H](O)C[C@@H]1n1cnc2c(=O)[nH]c(N)nc21 ?
T. gondii: 13.0

Results for CCN(CC)C(=O)C1(c2ccccc2)CC1CN (stereo not drawn) ?
T. gondii: 7.2

Among those listed so far, three have an aryl thioether with sulfur outside any ring.
How did N#CC(=C(/N)Sc1ccccc1N)/C(C#N)=C(/N)Sc1ccccc1N do in these assays?
T. gondii: 20.0

Results for CO[C@@]1(NC(=O)C2SC(=C(C(N)=O)C(=O)O)S2)C(=O)N2C(C(=O)O)=C(CSc3nnnn3C)CSC21 (stereo partly drawn) ?
T. gondii: 5.7

How did CC(C)=CCC/C(C)=C/CC/C(C)=C/CSc1ccccc1C(=O)O do in these assays?
T. gondii: 3.4

Source: PubChem

This is a subset; count on the stated rates, not on these rows.
